Mtb MbtI inh: blocks the Mycobacterium tuberculosis siderophore enzyme MbtI. P9WFX0. purified MbtI enzyme, fluorescence intensity read-out. inhibition, %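 (about 17 µg/mL by stock and volumes)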. hit rate 0.89% among 100,000. AID 493033;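 active means above 50% in both replicates, above 80% if mildly self-fluorescent; inactive means the rest, strongly fluorescent compounds included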;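 further: 0% = mean of negative and 100% = mean of positive controls; one replicate is shown; some compounds called inactive have numbers as strong as hits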
Target sequence (P9WFX0 whole entry, looked up): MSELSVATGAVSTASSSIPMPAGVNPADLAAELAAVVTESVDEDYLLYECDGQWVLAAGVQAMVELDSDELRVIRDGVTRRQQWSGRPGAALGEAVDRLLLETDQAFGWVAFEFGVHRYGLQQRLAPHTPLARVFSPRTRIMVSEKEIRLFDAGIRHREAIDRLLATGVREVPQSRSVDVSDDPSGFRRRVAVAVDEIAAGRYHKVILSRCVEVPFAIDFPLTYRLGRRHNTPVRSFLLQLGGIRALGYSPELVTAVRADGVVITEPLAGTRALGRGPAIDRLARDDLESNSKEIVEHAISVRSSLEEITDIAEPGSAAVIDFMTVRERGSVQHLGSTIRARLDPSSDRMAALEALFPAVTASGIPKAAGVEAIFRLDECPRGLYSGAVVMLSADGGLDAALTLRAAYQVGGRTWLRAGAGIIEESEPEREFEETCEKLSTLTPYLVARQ
Polio RdRp inh: inhibitors of poliovirus RNA polymerase binding and polymerization. poliovirus polymerase elongation, fluorescence polarization; stronger effect = lower value. % elongation, % (compound at 16.7 µg/mL). hit rate 0.66% among 150,000. AID 588519; in the data active means % elongation below about 90%; further: some results filed as inactive read as strong as hits
Target sequence (P03300 1749-2209 limits assumed): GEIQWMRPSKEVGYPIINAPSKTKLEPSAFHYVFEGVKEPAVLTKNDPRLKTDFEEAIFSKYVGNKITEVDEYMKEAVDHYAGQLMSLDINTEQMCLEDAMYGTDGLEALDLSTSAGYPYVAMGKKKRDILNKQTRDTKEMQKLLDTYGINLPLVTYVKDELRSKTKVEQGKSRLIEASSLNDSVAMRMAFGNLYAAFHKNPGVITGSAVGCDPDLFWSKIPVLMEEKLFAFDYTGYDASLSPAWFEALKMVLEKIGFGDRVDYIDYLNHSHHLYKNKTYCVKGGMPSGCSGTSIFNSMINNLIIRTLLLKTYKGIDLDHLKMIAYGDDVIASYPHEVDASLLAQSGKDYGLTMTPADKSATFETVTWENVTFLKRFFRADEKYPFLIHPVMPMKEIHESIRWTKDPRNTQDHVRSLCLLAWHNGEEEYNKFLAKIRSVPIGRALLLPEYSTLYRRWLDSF
MenB inh: blocks the Mycobacterium tuberculosis MenB enzyme; hit rate 0.43% among 100,000; AID 540299; MenB enzyme assay, absorbance read-out; some hits fall short of the stated cut; inhibition, %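 (about 12 µg/mL by stock and volumes)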;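 active means mean of two replicates above 30%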;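 further: 0% = no compound and 100% = wells with inactive enzyme; the first replicate is given; strong numbers were not always called active; inactives centre near -10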
Polio RdRp inh intensity: also measured in Polio RdRp inh; calls as there; % elongation; measured here: total intensity read-out; formula for this scale not given here;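 total fluorescence in place of polarization; lower means less elongation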
* hit, by the source's call; . = no result given; & = joins results of further samples.

1	C=CCN(C(=O)c1noc2c1CCCC2)c1ccccc1
2	Oc1ccccc1-c1cc(C(F)(F)F)n(-c2ccccc2)n1
3	Nn1c(SC(C(=O)N2CCCCC2)c2ccccc2)nnc1C1CC1 (configuration not stated)
4	CCC1CCCCN1C(=O)CSc1nc2ncccc2o1 (configuration not stated)
5	CC1=C(NS(=O)(=O)c2cccc(C(=O)O)c2)CN(c2ccccc2)N1C
6	Cc1ccc(N2C(=O)CC(NCc3ccc(S(N)(=O)=O)cc3)C2=O)cc1Cl (configuration not stated)

assay / entry | 1 | 2 | 3 | 4 | 5 | 6
Mtb MbtI inh | -28 | . | -12 | 5 | -4 | 6
Polio RdRp inh | 105 | 110 | 105 | 102 | . | 99
Polio RdRp inh intensity | 107 | 115 | 106 | 100 | . | 100
MenB inh | -14 | 1 | -21 | 11 | -18 | -21

7	CCC(C)NC(=O)c1cnc2n(c1=O)CCS2 (configuration not stated)
8	CC(SCc1ccccc1)C(=O)Nc1cccnc1 (configuration not stated)
9	CC(C)(C)C1CCc2c(sc(NC(=O)CSc3nnc(-c4ccncc4)o3)c2C#N)C1 (configuration not stated)
10	COc1ccc(NC(C)=S)cc1C
11	CC1(C)S[C@@H]2[C@H](NC(=O)COc3ccccc3)C(=O)N2[C@H]1C(=O)O
12	CCOc1ccc(NC(=O)c2cc3oc(C)cc3n2Cc2ccc(C)cc2)cc1

assay / entry | 7 | 8 | 9 | 10 | 11 | 12
Mtb MbtI inh | 3 | . | 12 | 14 | -26 | -3
Polio RdRp inh | 102 | 99 | 105 | 98 | 101 | 100
Polio RdRp inh intensity | 102 | 107 | 98 | 101 | 102 | 103
MenB inh | -14 | -1 | 10 | -13 | 2 | -9

13	CC(C)(C)S(=O)(=O)/C(C#N)=C/N1CCN(C(c2ccccc2)c2ccccc2)CC1
14	CCC(=O)N(Cc1ccco1)c1nc(-c2ccccc2)cs1
15	CC1CCNC(c2cccn2C)CC1 (configuration not stated)
16	CN1CCN(S(=O)(=O)c2cccc(C(=O)Nc3cc(C(F)(F)F)cc(C(F)(F)F)c3)c2)CC1
17	O=C(COc1ccc2oc3c(c2c1)CCCC3)Nc1ccncc1
18	O=C1C2CCN(CC2)C1(CO)CO

assay / entry | 13 | 14 | 15 | 16 | 17 | 18
Mtb MbtI inh | -7 | -7 | 2 | -3 | -10 | -24
Polio RdRp inh | 102 | 100 | 103 | 101 | 105 | 103&101
Polio RdRp inh intensity | 110 | 103 | 99 | 105 | 108 | 104&103
MenB inh | -12 | 20 | -2 | -12 | . | -12

19	CC(C)(C)c1ccc2c(c1)CN(c1cccc(C(=O)O)c1)CO2
20	O=C1CCCC2=C1C(c1cccc3ccccc13)C1=C(CCCC1=O)N2
21	CC(C)C1c2cccn2CCN1C(=O)Nc1ccccc1 (configuration not stated)
22	O=C(O)CCCc1ccc(F)cc1
23	COc1ccc(OCCn2cc(C(=O)C(C)(C)C)c3ccccc32)cc1
24	CC(Sc1cccc2cccc(C(=O)O)c12)C(=O)O (configuration not stated)

assay / entry | 19 | 20 | 21 | 22 | 23 | 24
Mtb MbtI inh | 103 | . | 0 | -3 | -9 | 5
Polio RdRp inh | 102 | 107 | 99 | 102 | 100 | 105
Polio RdRp inh intensity | 109 | 106 | 102 | 103 | 105 | 102
MenB inh | 12 | -36 | 3 | -24 | -47 | -11

25	O=C(CCc1ccccc1)N1CCN(c2ccccc2)CC1
26	Cc1ccc(CSc2nc3nccnc3c(=O)n2CCC(C)C)cc1
27	O=C1c2ccccc2S(=O)(=O)N1Cc1cc(=O)[nH]c(=O)[nH]1
28	COc1ccc(CNCC(O)c2nnn(C)n2)cc1OC (configuration not stated)
29	O=C(NC1CCCC1)C(c1ccsc1)N(C(=O)Cc1cccs1)c1ccccc1 (configuration not stated)
30	CCn1c(Sc2ccc(N)cc2Cl)nc2ccccc21

assay / entry | 25 | 26 | 27 | 28 | 29 | 30
Mtb MbtI inh | . | 3 | 5 | -3 | -1 | 10
Polio RdRp inh | 106 | 101 | 103 | 104 | 101 | 99
Polio RdRp inh intensity | 111 | 101 | 107 | 100 | 100 | 101
MenB inh | -20 | -12 | 2 | -33 | -12 | -6

31	NC(=O)c1cc2cc(Br)ccc2oc1=O
32	C/C=C/C1OCC2C(C)C=C(C)C1C2C (configuration not stated)
33	COc1cccc(OCc2nnc(SCc3ccccc3)n2C)c1
34	CN(CCC#N)c1ccc(/C=C2\CC/C(=C\c3ccc(N(C)CCC#N)cc3)C2=O)cc1
35	Cc1[nH]n(-c2ccccc2)c(=O)c1C(=O)C(F)(F)F
36	O=c1cc(CSc2nnnn2-c2ccccc2)[nH]c2[nH]n(-c3ccccc3)c(=O)c12

assay / entry | 31 | 32 | 33 | 34 | 35 | 36
Mtb MbtI inh | 4 | -4 | 9 | -4 | 8 | 1
Polio RdRp inh | 101 | 102 | 103 | 50 | 103 | 101
Polio RdRp inh intensity | 103 | 103 | 99 | 237 | 103 | 101
MenB inh | 5 | -50 | -48 | -46 | -46 | -19

37	CCOC(=O)c1cnc(SCc2c(C)cc(C)cc2C)nc1C(F)(F)F
38	CCC(C)NC(=O)c1ccc2c(=O)n(Cc3ccc(OC)cc3)c(=O)[nH]c2c1 (configuration not stated)
39	CNCc1cc(=O)[nH]c2ccccc12
40	CSc1nc(NC(C)=O)nc(C)c1Br
41	CN(C)C(=O)C12CC3CC(CC(C3)C1)C2
42	CCOc1ccc(Br)cc1S(=O)(=O)Nc1ccc(N)cc1

assay / entry | 37 | 38 | 39 | 40 | 41 | 42
Mtb MbtI inh | -10 | -11 | 90 | -3 | -6 | 15
Polio RdRp inh | 104 | 100 | 101 | 100 | 101 | 106
Polio RdRp inh intensity | 112 | 103 | 103 | 99 | 108 | 99
MenB inh | -10 | -13 | -31 | 1 | . | -6

43	CCn1cc(C(=O)NCCc2ccc(OC)c(OC)c2)c(=O)c2cc(S(=O)(=O)N(C)C)ccc21
44	c1nc(Nc2ccc(N3CCOCC3)cc2)c2ccsc2n1
45	CCOC(=O)c1oc2ccccc2c1COC(=O)CNC(=O)c1cccs1
46	COCCNC(=S)Nc1ccccc1
47	CCN(CC)S(=O)(=O)c1ccc(O)cc1
48	O=C(NCCC1=CCCCC1)c1cc(-c2ccccn2)nc2ccccc12

assay / entry | 43 | 44 | 45 | 46 | 47 | 48
Mtb MbtI inh | -1 | 5 | 6 | -5 | -9 | 8
Polio RdRp inh | 99 | 106 | 99 | 102 | 99 | 100
Polio RdRp inh intensity | 103 | 98 | 103 | 104 | 99 | 105
MenB inh | 9 | -20 | 5 | 4 | . | -30

Complete entries, looked up by structure. Order of values: Mtb MbtI inh	Polio RdRp inh	Polio RdRp inh intensity	MenB inh
`CCN(CC)S(=O)(=O)c1ccc(O)cc1` as listed: -9	99	99	.
`CCOC(=O)c1oc2ccccc2c1COC(=O)CNC(=O)c1cccs1` as listed: 6	99	103	5

(continued)
49	COc1ccc(-c2onc(C)c2C)cc1S(=O)(=O)Nc1ccc(N2CCC(C)CC2)cc1
50	CCCCNC(=O)Cn1nnc(-c2cccc(C(F)(F)F)c2)n1
51	CN(C(=O)c1ccc(N)cc1)c1ccccc1
52	COC(=O)C1CC23C=CNC4CCC5(c6ccccc6NC15C2C)C43 (configuration not stated)
53	COc1ccccc1CNC(=O)[C@@H]1CCCN1S(=O)(=O)c1ccc(C)cc1
54	CCOC(=O)c1c(C)n(-c2ccccc2)c2ccc(OC(=O)c3ccco3)cc12

assay / entry | 49 | 50 | 51 | 52 | 53 | 54
Mtb MbtI inh | -13 | 6 | 10 | -8 | -12 | -2
Polio RdRp inh | 103 | 101 | 101 | 106 | 102 | 102
Polio RdRp inh intensity | 101 | 96 | 99 | 111 | 104 | 103
MenB inh | -12 | 7 | -13 | 3 | -17 | 4

55	Cc1ccccc1C1CC(=O)c2c(ccc3ccccc23)N1 (configuration not stated)
56	O=C(NC1CCCC1)N1CC=C(c2c[nH]c3ccccc23)CC1
57	CC(O)(C#CCN1CCCCC1)C1CC1 (configuration not stated)
58	COC(=O)C1=CN(C2CC2)C=C(C(=O)OC)C1c1ccc(OC(F)(F)F)cc1
59	CCc1nn2c(=O)cc(CN(C)Cc3ccccc3)nc2s1
60	CCc1ccc(NC(=O)Nc2ccc3nc(N4CCN(C)CC4)cc(C)c3c2)cc1

assay / entry | 55 | 56 | 57 | 58 | 59 | 60
Mtb MbtI inh | -1 | -103 | . | 7 | 16 | -167
Polio RdRp inh | 100 | 103 | 114 | 103 | 101 | 100
Polio RdRp inh intensity | 98 | 107 | 119 | 103 | 101 | 100
MenB inh | -9 | -16 | -2 | -14 | -8 | -3

Individual results from the list:
Result for O=c1cc(CSc2nnnn2-c2ccccc2)[nH]c2[nH]n(-c3ccccc3)c(=O)c12 in MenB inh: -19
Result for COc1ccc(-c2onc(C)c2C)cc1S(=O)(=O)Nc1ccc(N2CCC(C)CC2)cc1 in Polio RdRp inh: 103
Result for COC(=O)C1=CN(C2CC2)C=C(C(=O)OC)C1c1ccc(OC(F)(F)F)cc1 in Mtb MbtI inh: 7
Result for c1nc(Nc2ccc(N3CCOCC3)cc2)c2ccsc2n1 in Mtb MbtI inh: 5

Following part:
61	CCOC(=O)C1=CN(O)/C(=C\N=O)C=C1
62	Cc1nn2cnnc2c(C)c1CCC(=O)N1CCCC1
63	Cc1cc(OC(C)C(=O)O)cc(C)c1Cl (configuration not stated)
64	Cn1ccnc1SCc1cc(=O)[nH]c2ccccc12
65	O=C(N=Nc1c(O)[nH]c2cc3c(cc12)OCCCO3)C1CCCCC1
66	COc1ccccc1N1CCN(S(=O)(=O)c2ccc(Cl)s2)CC1

assay / entry | 61 | 62 | 63 | 64 | 65 | 66
Mtb MbtI inh | 3 | 119 | -2 | . | 3 | 4
Polio RdRp inh | 102 | 99 | 102 | 103 | 99 | 103
Polio RdRp inh intensity | 101 | 103 | 102 | 108 | 102 | 96
MenB inh | 15 | 16 | -46 | 7 | -5 | -12

67	O=c1[nH][nH]c(=O)c2c(N=Cc3cccc4ccccc34)cccc12
68	CCC1CSC(Nc2ccccc2OC)=N1 (configuration not stated)
69	CC1CCN(CCCNC(=O)Cn2ncc3c([nH]c4ccccc43)c2=O)CC1
70	CC(=C\c1ccccc1)/C=C1/SC(=S)N(C2CCCCC2)C1=O
71	CCN(CC)P1(=S)N(C)P(=S)(N(CC)CC)N1C (configuration not stated)
72	CC(=O)Nc1ccc(C(=O)NN)cc1

assay / entry | 67 | 68 | 69 | 70 | 71 | 72
Mtb MbtI inh | . | 3 | 87 | 4 | -11 | .
Polio RdRp inh | 96 | 102 | 100 | 98 | 102 | 107
Polio RdRp inh intensity | 99 | 103 | 103 | 98 | 110 | 112
MenB inh | -3 | -16 | 7 | -17 | -10 | -12

73	CC(=O)Nc1nonc1NC(=O)C12CC3CC(CC(C3)C1)C2
74	CC(Sc1nnc(N)s1)C(=O)N1N=C(c2ccc(Cl)cc2)CC1c1ccco1 (configuration not stated)
75	C/C(=N\N=C1/NC(=O)C(CC(=O)O)S1)c1ccc(C)o1 (configuration not stated)
76	CCOC(=O)N1CCN(C(=O)C2CC(c3ccc(OC)c(OC)c3)=NO2)CC1 (configuration not stated)
77	COc1cccc(CNC(C)C23CC4CC(CC(C4)C2)C3)c1OCc1cccs1 (configuration not stated)
78	CC12CCC(C(=O)Nc3ccccc3)(OC1=O)C2(C)C (configuration not stated)

assay / entry | 73 | 74 | 75 | 76 | 77 | 78
Mtb MbtI inh | . | 5 | 29 | 1 | -10 | -10
Polio RdRp inh | 109 | 105 | 99 | 99 | 99 | 100
Polio RdRp inh intensity | 110 | 106 | 101 | 102 | 96 | 103
MenB inh | -12 | 9 | -3 | 0 | -21 | 10

79	CCc1ccccc1NC(=O)N1CCC(NC(=O)C(Cc2ccccc2)NC(C)=O)CC1 (configuration not stated)
80	Cc1n[nH]c(C)c1CCCOc1ccccc1
81	COc1ccc2c(CC(=O)Oc3ccc(-c4ccc(C#N)cc4)cc3)coc2c1
82	O=C(OCc1cc(=O)oc2cc(O)ccc12)c1cc(Br)ccc1O
83	COc1ccc(-c2cc(C(F)(F)F)nc(SC3CC(O)C4OCC3O4)n2)cc1OC (configuration not stated)
84	O=NC1=C(c2c(O)[nH]c3ccccc23)CCCC1

assay / entry | 79 | 80 | 81 | 82 | 83 | 84
Mtb MbtI inh | -5 | 16 | -9 | -97 | . | -5
Polio RdRp inh | 104 | 101 | . | 103 | 103 | 103
Polio RdRp inh intensity | 109 | 101 | . | 107 | 105 | 104
MenB inh | -19 | 7 | -15 | 2 | -13 | -13

85	CCc1ccc(NC(=O)C2CC3CCCN3C23C(=O)Nc2ccccc23)cc1 (configuration not stated)
86	CC1CN=C(N(C(=O)Nc2ccc(Cl)cc2)C(C)c2ccccc2)S1 (configuration not stated)
87	c1ccc(CSc2nnc(-c3ccco3)n2-c2ccccc2)cc1
88	COc1ccccc1C(=O)Nc1ccc(S(=O)(=O)NC(C)C)cc1
89	Cc1ccc(NC(=O)COc2cccc3c2CCN(Cc2cccnc2)C3=O)c(C)c1
90	N#Cc1cc(C#N)c(=S)[nH]c1N
91	CC(C)(C)CC(=O)NN1C(=O)c2cccc3cccc(c23)C1=O
92	COc1cccc2sc(N(CCN(C)C)C(C)=O)nc12
93	COc1ccc(C#N)cc1OC

assay / entry | 85 | 86 | 87 | 88 | 89 | 90 | 91 | 92 | 93
Mtb MbtI inh | -5 | -11 | . | -13 | -3 | 85 | 97 | 5 | -36
Polio RdRp inh | 101 | 102 | 99 | 101 | 99 | 102 | 106 | 100 | 100
Polio RdRp inh intensity | 101 | 106 | 95 | 102 | 103 | 114 | 105 | 101 | 101
MenB inh | -5 | -9 | -20 | -10 | -14 | -32 | 5 | 0 | -18
